miR-21 reporter – miR-21 reporter, rising signal. Potency, µM (titrated, usually from 38.3 µM), inactives show top-dose reporter change, positive = more light. 340,000 tested, under 10 active. AID 2288. HeLa miR-21 FLuc reporter, luciferase, 48 h; active = well fitted rising curve with a large enough effect; inconclusive = small, poorly fitted or top-dose-only effect; inactive = no such curve, though single readings can be large or run the other way;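 further: % of control where 0% means no effect; miR-21 action dims this reporter so a rising signal means less miR-21 action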
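Luminescence from a firefly luciferase reporter carrying a miR-21 binding site downstream, stably expressed under a CMV promoter in HeLa cells that make miR-21 endogenously, reports miRNA modulation after 48 h compound exposure up to approximately 40uM final.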
Numbers without * were called inactive; ? = inconclusive.

SMILES | miR-21 reporter
CNC(=O)c1c(NC(=O)c2ccc(S(=O)(=O)N3CCCCC3)cc2)sc2c1CCC2 | 4%
COc1ccc(N2CC(NC(=O)COc3ccc4ccccc4c3)CC2=O)cc1OC (stereo not drawn) | -4%
CCN1CCN(C(=O)c2ccc3c(c2)N(Cc2c(F)cccc2Cl)C(=O)c2ccccc2S3)CC1 | -1%
Cc1ccc(C)c(CN2C(=O)c3ccccc3S(=O)(=O)c3ccc(C(=O)Nc4ccccc4C(F)(F)F)cc32)c1 | -2%
Cc1ccc(NC(=O)Cn2c(=O)ccc3cc(S(=O)(=O)N4CCC(C)CC4)ccc32)cc1C | 7%
Cc1ccc2ncc(C(=O)Nc3ccc(F)cc3F)c(=O)n2c1 | -16%
Cc1cc(C)cc(-n2ccn3c(CC(C)(C)CC(=O)O)nnc3c2=O)c1 | -1%
CCC(Oc1ccccc1F)C(=O)N1CCC(c2nc3ccccc3s2)CC1 (stereo not drawn) | ?
COC(=O)c1cc2oc(C)cc2n1CC(=O)Nc1cc(Cl)ccc1OC | -1%
Cc1csc2nc(COC(=O)CNC(=O)c3ccccc3)cc(=O)n12 | -2%
CC(C)(C)OC(=O)N1CCC(c2c(C(=O)N3CCN(c4ccccn4)CC3)cnn2-c2ccc(F)cc2F)CC1 | -3%
COc1ccc(C(=O)NCC(c2ccco2)S(=O)(=O)c2cccs2)cc1 (stereo not drawn) | -1%
CCc1nn2c(=O)cc(COC(=O)c3ccccc3)nc2s1 | -52%
CCOc1ccc(NC(=O)C2CCCN(c3ccc(Sc4ccc(C)cc4)nn3)C2)cc1 (stereo not drawn) | -4%
Cc1ccc(CNC(=O)c2cc(=O)c3cc(C)cc(C)c3o2)cc1 | 2%
CCn1c2c(c(=O)n3ncc(C(=O)N4CCN(c5ccc(C(C)=O)cc5)CC4)c13)CN(Cc1ccc(OC)cc1)CC2 | 1%
Cc1ccc(Cl)cc1N1CCN(C(=O)CCn2c(=O)c3cccn3c3cccnc32)CC1 | 1%
Cc1ccc2oc(-c3cc(NC(=O)c4ccc5c(c4)OCCO5)cc(C)c3O)nc2c1 | -5%
CCOC(=O)c1c(C)[nH]c(C)c1S(=O)(=O)NCC(=O)N1CCN(c2ccccc2OC)CC1 | -1%
COc1ccc(OC)c(CNC(=O)C2CCN(c3nc4ccccc4nc3C(F)(F)F)CC2)c1 | -2%
COc1ccc(-c2c3c(=O)n(C)c(=O)n(C)c3c3n2-c2ccccc2NC3c2ccco2)cc1 (stereo not drawn) | -6%
CCOc1ccc(N(CC)C(=O)Cn2cnc3sc(C)c(S(=O)(=O)N4CCN(c5ncccn5)CC4)c3c2=O)cc1 | 3%
Cc1ccc(NC(=O)C2CCCN2S(=O)(=O)c2ccc3nc(-c4ccccc4)[nH]c3c2)cc1F (stereo not drawn) | -2%
Cc1ccc(CNC(=O)Cn2cc(S(=O)(=O)Cc3ccccc3Cl)c3ccccc32)cc1 | -2%
Cc1cc(N2CCC(C(=O)NCCC(C)C)CC2)n2nc(C)c(-c3ccc(Cl)cc3)c2n1 | 3%
CCCCOc1cccc(C(=O)Nc2cccc3ccc(C)nc23)c1 | -7%
CCOC(=O)c1ccc(NC(=O)C2CCCN(c3ccc(Sc4ccc(C)cc4)nn3)C2)cc1 (stereo not drawn) | 14%
O=C(CC1C(=O)N(c2ccccc2)C(=O)N1Cc1ccc(F)cc1)Nc1cccc(F)c1 (stereo not drawn) | 16%
CCn1cc(S(=O)(=O)c2ccc(Cl)cc2)c(=O)c2cc(F)c(N3CCOCC3)cc21 | -11%
CC(=O)c1ccc(NC(=O)c2cc3c([nH]c2=O)CC(c2ccccc2)CC3=O)cc1 (stereo not drawn) | -12%
CN(c1ncnc2c1c(-c1ccccc1)cn2-c1ccc(F)cc1)C1CCCCC1 | 1%
Cc1ccc(CN(C(=O)c2ccc(OCC(C)C)cc2)c2ccccn2)o1 | -40%
Cc1nn(CC(=O)N2CCC(C)CC2)c(=O)c2cc3occc3n12 | -16%
O=C(NC1CCCCC1)c1cc(Nc2ccccc2)nc2ccccc12 | 1%
COc1ccc(N2CCN(C(CNS(=O)(=O)c3ccc(OC)c(C)c3)c3ccco3)CC2)cc1 (stereo not drawn) | 9%
O=C(COc1ccccc1)Nc1ccc2nc(SCC(=O)N3CCc4ccccc43)sc2c1 | -1%

6 of these compounds, reformatted:
miR-21 reporter	Molecule
1%	CN(c1ncnc2c1c(-c1ccccc1)cn2-c1ccc(F)cc1)C1CCCCC1
-11%	CCn1cc(S(=O)(=O)c2ccc(Cl)cc2)c(=O)c2cc(F)c(N3CCOCC3)cc21
16%	O=C(CC1C(=O)N(c2ccccc2)C(=O)N1Cc1ccc(F)cc1)Nc1cccc(F)c1 (stereo not drawn)
1%	O=C(NC1CCCCC1)c1cc(Nc2ccccc2)nc2ccccc12
14%	CCOC(=O)c1ccc(NC(=O)C2CCCN(c3ccc(Sc4ccc(C)cc4)nn3)C2)cc1 (stereo not drawn)
3%	Cc1cc(N2CCC(C(=O)NCCC(C)C)CC2)n2nc(C)c(-c3ccc(Cl)cc3)c2n1

Continued:
SMILES | miR-21 reporter
COc1ccc(N(Cc2nnc3n2CCCCC3)C(=O)Nc2ccc(Cl)cc2)cc1Cl | -2%
Cc1ccc(CN2CCCn3nc(C(=O)NCCC(C)C)cc3C2=O)cc1 | -7%
Cc1c(-c2nc(-c3ccc4c(c3)OCO4)no2)nnn1-c1ccc(Br)cc1F | -18%
CCOc1ccc(CNC(=O)Cn2c(=O)c3cccn3c3ccc(F)cc32)cc1 | -1%
CCOC(=O)c1c(NC(=O)c2cc3nc(-c4ccc(OC)cc4)cc(C(F)(F)F)n3n2)sc2c1CCC(C)C2 (stereo not drawn) | 2%
Cc1ccccc1CSc1nc2ccsc2c(=O)n1CCC(C)C | -8%
CCCN1C(=O)C2(c3ccccc31)c1c(oc3ccc(F)cc3c1=O)C(=O)N2CCCOC(C)C (stereo not drawn) | 1%
CCC(=O)N1CCc2cc(Br)cc(S(=O)(=O)CCC(=O)N3CCN(c4cc(C)ccc4C)CC3)c21 | 0%
COc1ccc(C)cc1NC(=O)c1cc(S(=O)(=O)N2CCN(c3cccc(C)c3C)CC2)ccc1F | -6%
COc1ccc(NC(=O)CSc2nc3ccccc3n2CC(=O)NCc2ccc(F)cc2)cc1 | -4%
COc1ccc(-c2nc3scc(CCNS(=O)(=O)c4ccc(F)c(C(F)(F)F)c4)n3n2)cc1OC | 19%
Cc1ccsc1CN(Cc1ccco1)C(=O)c1ccc(Cl)cc1 | 10%

The list goes on, starting with the last 2 of the part before.
SMILES | miR-21 reporter
COc1ccc(-c2nc3scc(CCNS(=O)(=O)c4ccc(F)c(C(F)(F)F)c4)n3n2)cc1OC | 19%
Cc1ccsc1CN(Cc1ccco1)C(=O)c1ccc(Cl)cc1 | 10%
Cc1ccc2oc3c(c(=O)c2c1)C(c1cccc(O)c1)N(Cc1ccccc1Cl)C3=O (stereo not drawn) | -2%
CCN1CCN(C(c2ccccc2)c2c(O)cc(C)n(CCOC)c2=O)CC1 (stereo not drawn) | 3%
Cc1ccc(Cn2c(CCCNC(=O)c3ccco3)nc3ccccc32)cc1 | 15%
CSc1nc(Nc2ccc(C)cc2C)cc(-c2ccccc2)n1 | 5%
NS(=O)(=O)c1ccc(NC(=O)COc2ccc(S(=O)(=O)NC3CCCCC3)cc2)cc1 | -3%
COc1ccc(/C=C\c2onc(C)c2S(=O)(=O)N2CCC(C(=O)Nc3ccc(F)cc3F)CC2)cc1 | -6%
COc1cccc(-n2c(-c3ccc(C)cc3)cc3c2CC(C)(C)CC3=O)c1 | 14%
CC(C)(C)c1ccccc1NC(=O)CSc1nc(-c2cccs2)cc(C(F)(F)F)n1 | 1%
COc1ccccc1NC(=O)CSc1nc2nccnc2c(=O)n1CCc1c[nH]c2ccccc12 | 1%
CCc1ccc2occ(CC(=O)NCc3ccccc3)c2c1 | 26%
CCOc1ccc(NC(=O)CN2CCN(CC(=O)Nc3ccc(F)cc3F)CC2)cc1 | -4%
O=C(Nc1ccccc1C(=O)O)c1cccc(S(=O)(=O)N2CCCC2)c1 | -19%

Gathered by group, the entries above containing an NH in an aromatic ring.
SMILES | miR-21 reporter
CCOC(=O)c1c(C)[nH]c(C)c1S(=O)(=O)NCC(=O)N1CCN(c2ccccc2OC)CC1 | -1%
Cc1ccc(NC(=O)C2CCCN2S(=O)(=O)c2ccc3nc(-c4ccccc4)[nH]c3c2)cc1F (stereo not drawn) | -2%
CC(=O)c1ccc(NC(=O)c2cc3c([nH]c2=O)CC(c2ccccc2)CC3=O)cc1 (stereo not drawn) | -12%
COc1ccccc1NC(=O)CSc1nc2nccnc2c(=O)n1CCc1c[nH]c2ccccc12 | 1%

The listing continues:
SMILES | miR-21 reporter
Cn1c(=O)cc(OCC(=O)N2CCN(c3ccc(F)cc3)CC2)c2ccccc21 | 0%
Cc1ccc(C)c(CN2C(=O)c3ccccc3S(=O)(=O)c3ccc(C(=O)N4CCCCC4)cc32)c1 | 15%
Cc1cc(C)n(-c2nc3cc(Cl)ccc3nc2N2CCN(c3cccc(C)c3C)CC2)n1 | 1%
CCc1ccc2oc(C(=O)Nc3ccccc3OC)cc(=O)c2c1 | -11%
COc1ccc(C(=O)Nc2ccc3oc(-c4cc(Cl)ccc4Cl)nc3c2)cc1Br | -7%
Cc1cccc(C(=O)Nc2c(C(=O)NCc3ccc(Cl)cc3)sc3nc(C)cc(C)c23)c1 | 15%
O=C(Nc1cccc(Cl)c1Cl)c1cc(S(=O)(=O)N2CCC3(CC2)OCCO3)ccc1F | 0%
Cc1ccn2c(=O)c(C(=O)NC(C)c3ccccc3)c(O)nc2c1 (stereo not drawn) | -6%
CC(=O)c1cccc(NC(=O)c2ccc3c(c2)c(C)c(C)n3Cc2ccc(Cl)cc2)c1 | 20%
Cc1ccc(Cl)cc1NC(=O)CSC1=Nc2ccccc2C2=NC(Cc3ccccc3)C(=O)N12 (stereo not drawn) | 23%
CCOC(=O)C1=C(CN2CCN(c3ccccc3)CC2)NC(=O)NC1c1ccc(C)cc1 (stereo not drawn) | -6%
COc1cc2c(=O)c(S(=O)(=O)c3ccc(F)cc3)cn(Cc3ccc(Cl)cc3)c2cc1OC | 0%
CCCCn1c(C(C)NC(=O)c2ccccc2)nc2ccccc21 (stereo not drawn) | 12%
CC(=O)N1CCCc2cc(S(=O)(=O)N3CCC(C(=O)N(Cc4ccccc4)C(C)C)CC3)ccc21 | 3%
CC(C)Oc1ccc(CNC(=O)c2ccc3c(c2)nc2n3CCOC2)cc1 | -56%
Cc1ccc(Nc2nnc(-c3ccc(C)c(S(N)(=O)=O)c3)c3ccccc23)cc1 | 11%
COc1ccc(CCNC(=O)Cn2c(C)c3cnn(-c4ccccc4)c(=O)c3c2C)cc1OC | 7%
COc1ccc(NC(=O)CSc2nc(-c3ccc(OC)cc3)[nH]c2-c2ccc(OC)cc2)cc1 | 0%
COc1ccc(CCNC(=O)c2cc(-c3ccc(C)cc3)nc3n[nH]c(-c4ccc(F)cc4)c23)cc1OC | -15%
CC1=C(C(=O)Nc2cccnc2)C(c2ccc(F)cc2)n2nc(-c3cccc(C)c3)nc2N1 (stereo not drawn) | 15%
O=C(CNC(=O)c1ccc(F)cc1)OCc1cc(=O)n2nc(C3CCCCC3)sc2n1 | -11%
CCc1ccc(NC(=O)CC2C(=O)N(c3cccc(C)c3)C(=O)N2Cc2cccc(OC)c2)cc1 (stereo not drawn) | 22%
CCOc1ccc(CCNC(=O)CSc2nnnn2-c2ccccc2)cc1OCC | 3%
CCOC(=O)c1c(NC(=O)c2ccc(F)cc2)sc2c1CCC(CC)C2 (stereo not drawn) | -1%
COc1ccc(-c2cn3c(n2)sc2cc(C(=O)Nc4ccc(C)c(Cl)c4)ccc23)cc1 | -39%
COc1cccc(OC)c1C(=O)Nc1ccc(-c2nc3ncccc3o2)cc1 | -37%
COc1ccccc1/C=C/c1nc(C#N)c(NCC(C)C)o1 | 3%
Cc1ccc(OCc2ccc(-c3nc(C#N)c(N4CCN(c5cccc(Cl)c5)CC4)o3)o2)cc1 | 1%
Cc1ccc(Nc2ncc(C(=O)N3CCN(c4cccc(Cl)c4)CC3)c3ccccc23)cc1Cl | 21%
COC(=O)CN1C(=O)CSc2ccc(S(=O)(=O)Nc3c(C)cc(C)cc3C)cc21 | 1%
CCc1ccc(S(=O)(=O)c2cn(CC)c3cc(N4CCOCC4)c(F)cc3c2=O)cc1 | -3%
CCCCN(CC)CCCNC(=O)c1cn(CC)c2ccc(S(=O)(=O)N3CCOCC3)cc2c1=O | 3%
COc1cc(C)ccc1OCCSc1nc2ccc(NC(C)=O)cc2s1 | -21%
Cc1ccc(-c2nc3cccnc3s2)cc1NC(=O)Cc1ccccc1 | 4%
COc1cc(Cl)c(C)cc1NC(=O)Cn1c2ncccc2c(=O)n1-c1ccccc1 | 0%
CCc1cccc(C)c1Nc1c(-c2ccc(N3CCOCC3)cc2)nc2ncccn12 | -8%
COCC(C)NC(=O)c1cnn2c(C(F)F)cc(-c3ccccc3)nc12 (stereo not drawn) | -14%
CCOc1ccc(CNC(=O)C2CCN(S(=O)(=O)c3ccc4c(ccn4C)c3)CC2)cc1 | 9%
Cc1cccc(NC(=O)C2CCCN(S(=O)(=O)c3c(C)[nH]c(=O)[nH]c3=O)C2)c1C (stereo not drawn) | 3%
CCc1ccc(NC(=O)CCS(=O)(=O)c2ccc3c(c2)oc(=O)n3C)cc1 | 3%
CCC(C)NC(=O)c1ccc2c(c1)N(Cc1ccccc1)C(=O)c1ccccc1S2(=O)=O (stereo not drawn) | -4%
CC(=O)Nc1ccc(OCc2cc(=O)n3ccccc3n2)cc1 | -33%
CCOc1ccc(N(CC)S(=O)(=O)N2CCCC(C(=O)NCc3ccccc3OCC)C2)cc1 (stereo not drawn) | 29%
COc1ccc2cc(-c3nc4ccc(C(=O)O)cc4[nH]3)c(=O)oc2c1 | -10%

An excerpt; the hit share may differ from the screen's.
